TRPML1 ag: agonists of human TRPML1 channel. activation, % (test concentration not listed). TRPML1-expressing cells, Ca2+ dye fluorescence, FDSS; host cell line not named in the record; reference of the full effect not given here. 410,000 tested, 0.12% active. Q9GZU1. AID 624414; in the data active = activation above about 50%; inconclusive = about 30% to 50%; inactive = below about 30%; note: 0% is about no effect; the text of the record puts the active cut at 80%
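Tet-induced TRPML1-DL cells, 1,500 per well, cultured overnight, were loaded with a no-wash Ca2+ dye for 45–90 min. Calcium fluorescence was recorded on the FDSS for 110 s after compound addition, before the EC80 agonist (4 uM 54-4) was added.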
PINK1 expr mod: modulators of PINK1 expression; PINK1 immunofluorescence, high-content cytometry, 24 h; Potency, µM (highest dose often 76.6 µM), inactives show at the top dose activation (PINK1 increase), usual class: activators; 410,000 tested, 0.2% active; AID 624263; active = well fitted activation curve with a large enough effect; inconclusive = small, poorly fitted or top-dose-only effect; inactive = flat fitted curve, though single readings scatter; cell line not stated here;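 note: potency is the fitted concentration of half-maximal effect; % of control where 0% means no effect; nearly all actives have a fitted effect of over 65% in size; a mitochondrial uncoupler was the plate control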
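Compound titrations (5 concentrations, 24 h) on a stable cell line; DMSO and CCCP controls. Endpoint: fixed-cell PINK1 immunofluorescence with mitochondrial, cell and nuclear markers, scanned by microplate cytometer.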
TRPV1 PAM: potentiators of human vanilloid receptor 1 (TRPV1) | Q8NER1 | TRPV1-expressing cells, Fluo-8 calcium influx, capsaicin EC20 potentiation; host cell line not named in the record; control for the full effect not named in the record | potentiation, % at 8.33 µM | 320,000 tested, 0.02% active; active means potentiation above 80%; inconclusive means 30% to 80%; inactive means below 30%; note: 0% is about no effect
Target sequence (Q8NER1 whole entry, looked up): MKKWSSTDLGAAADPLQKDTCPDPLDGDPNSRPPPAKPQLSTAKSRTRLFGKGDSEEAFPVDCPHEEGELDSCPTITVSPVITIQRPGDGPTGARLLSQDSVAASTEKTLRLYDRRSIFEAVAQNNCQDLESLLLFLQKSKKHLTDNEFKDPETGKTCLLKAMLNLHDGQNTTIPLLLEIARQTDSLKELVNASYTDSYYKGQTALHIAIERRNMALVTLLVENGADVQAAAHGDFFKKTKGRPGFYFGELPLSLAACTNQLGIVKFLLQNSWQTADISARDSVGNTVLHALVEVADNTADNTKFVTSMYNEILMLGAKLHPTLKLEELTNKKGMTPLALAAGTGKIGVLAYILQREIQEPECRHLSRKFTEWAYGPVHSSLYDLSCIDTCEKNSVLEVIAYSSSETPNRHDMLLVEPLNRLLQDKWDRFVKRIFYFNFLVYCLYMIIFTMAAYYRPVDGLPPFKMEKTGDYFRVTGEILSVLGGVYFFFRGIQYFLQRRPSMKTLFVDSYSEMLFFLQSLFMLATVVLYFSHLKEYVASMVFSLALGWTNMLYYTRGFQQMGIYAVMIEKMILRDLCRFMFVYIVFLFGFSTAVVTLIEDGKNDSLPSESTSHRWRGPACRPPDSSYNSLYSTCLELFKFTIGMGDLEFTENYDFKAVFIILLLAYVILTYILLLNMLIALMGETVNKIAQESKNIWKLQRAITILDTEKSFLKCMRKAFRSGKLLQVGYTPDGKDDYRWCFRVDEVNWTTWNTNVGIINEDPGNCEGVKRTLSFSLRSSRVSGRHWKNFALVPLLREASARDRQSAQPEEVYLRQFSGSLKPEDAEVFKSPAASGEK
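Fluo-8 calcium influx in TRPV1-expressing cells, kinetic read (ex 480/em 520 nm). Compound added and read 3 min for agonist activity, followed by capsaicin at EC20 final and 2 min further read for enhancement.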
Menin-MLL FL inh: menin-MLL binding inhibition, fluorescein peptide | Fluorescence polarization, fluorescein-MLL peptide displacement from menin | FP activity change, % at 61.4 µM | 290,000 tested, under 10 active; inconclusive = falling polarisation curve, or a change in total fluorescence; inactive = total fluorescence flat and polarisation flat or rising; no compound was filed as active; the % refers to the polarisation; negative = inhibition;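 note: % of control where 0% means no effect; inhibitors lower the polarisation; unlabelled MLL peptide was the positive control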
Sfp inh: Sfp phosphopantetheinyl transferase inhibition; Q9F4F7; Biochemical Sfp PPTase activity, qHTS; Potency, µM, for the others: max response, negative = inhibition, usual class: inhibitors; 310,000 tested, 3.5% active; AID 1490; active = well fitted inhibition curve with a large enough effect; inconclusive = small, poorly fitted or top-dose-only effect, or another doubt; inactive = no such curve, though single readings can be large or run the other way;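 note: the enzyme is Sfp with the accession as filed and its product quenches rhodamine fluorescence; potency is the fitted concentration of half-maximal effect; 0% = enzyme reaction without inhibitor and -100% = no enzyme wells; top concentration of the series not given in the record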
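Step 1, compound plus 15 nM Sfp-PPTase, 15 min, room temperature. Step 2, add rhodamine-CoA (5 uM) and BHQ-2-YbbR (12.5 uM). Step 3, read 525/598 nm fluorescence at 0 and 30 min.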
ClpP mod: qHTS Assay for Activators of ClpP. ATP-dependent Clp protease proteolytic subunit (Bacillus subtilis (strain 168)), P80244. purified B. subtilis ClpP, FRET peptide cleavage, 20 min. Potency, µM (doses to about 57.5 µM), for inactives: top-dose activity change, negative = active. 340,000 tested, 1.9% active. AID 651965, 2013; active = well fitted falling curve with a large enough effect; inconclusive = small, poorly fitted or top-dose-only effect; inactive = no such curve, though single readings can be large or run the other way; note: potency is the fitted concentration of half-maximal effect; the source files actives as falling curves though it sought activators and does not explain the sign; nearly all actives have a fitted effect of over 65% in size; many hits overshoot -100%
Target sequence (P80244 whole entry, looked up): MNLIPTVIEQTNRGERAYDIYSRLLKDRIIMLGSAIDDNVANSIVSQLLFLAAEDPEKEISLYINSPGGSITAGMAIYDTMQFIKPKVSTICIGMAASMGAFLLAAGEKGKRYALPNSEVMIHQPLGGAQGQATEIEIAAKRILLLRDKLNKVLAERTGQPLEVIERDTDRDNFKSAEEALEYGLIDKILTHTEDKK
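Buffer: 100 mM Tris/HCl pH8, 100 mM KCl, 0.05% low protease BSA, 2.5% glycerol, 0.01% Tween-20. ClpP 10 microg/mL final; 20 min RT; delta FRET normalized to ADEP and DMSO controls.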
TRPML1 blocker: inhibitors of human TRPML1 channel; Q9GZU1; TRPML1-inducible cells, Ca2+ dye fluorescence, FDSS; stronger effect = lower value; inhibition of EC80 agonist-evoked calcium signal; activity change, negative = inhibition, % (test concentration not listed); 390,000 tested, 0.02% active; AID 624415; in the data active means activity change below about -50%; inconclusive means about -30% to -50%; inactive means above about -30%;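 note: stimulus is agonist 54-4 at its EC80 concentration; % is set by controls: 0 for no effect and ±100 for the full control effect; compound concentration not given in the record; the text of the record puts the active cut at -80%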
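Calcium fluorescence in TRPML1-DL cells induced overnight with Tet: a 110 s read after compound pin addition, then a 110 s antagonist read after challenge with 54-4 at 4 uM final (EC80).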
Active calls of the source: *; ? = inconclusive; nt = not tested or not shown; & = joins results of further samples; [ ] = another dose, or the depositor's remark.

SMILES,Sfp inh,ClpP mod,TRPML1 blocker,TRPML1 ag,Menin-MLL FL inh,TRPV1 PAM,PINK1 expr mod
COc1cccc(CC(=O)OCC(=O)NNC(=O)c2ccc([N+](=O)[O-])cc2)c1,22%,-1.0%,50,-0.3,nt,0,1.2%
Cc1cc(-c2ccccc2)nn1-c1nc2c(c(=O)[nH]c(=O)n2C)n1C,-10%,-21%,-9,-0.3,-5.1,2,3.6%
Cc1c(Cl)ccc2sc(NC(=O)c3ccco3)nc12,4%,-20%,-2,-0.1,5.0,11,5.8%
COc1ccc(Oc2ccc(C(F)(F)F)cc2NC(=O)c2ccc(OC)cc2)cc1,?,?,4,0.8,-3.4,0,-0.7%
CCN(CC)S(=O)(=O)c1ccc2c(c1)N(CC(=O)N1CCN(c3cccc(OC)c3)CC1)C(=O)CO2,nt,-1.1%,4,-0.4,nt,nt,0.1%
CCc1nc2ccc(C(=O)NCC3CCCCC3)cn2c1N(C)C(=O)c1cccc(OC)c1,nt,2.1%,nt,-0.5,nt,nt,6.3%
COC(=O)N1CCC[C@@]2(CCN(c3ccccn3)C2)C1,29%,nt,nt,nt,-1.7,nt,-0.1%
COc1cc(C2C3=C(CCCC3=O)OC3=C2C(=O)CCC3)ccc1OCC(=O)Nc1ccccc1,-3%,-3.3%,-2,0.7,-7.3,-12,0.8%

The list continues.
SMILES,Sfp inh,ClpP mod,TRPML1 blocker,TRPML1 ag,Menin-MLL FL inh,TRPV1 PAM,PINK1 expr mod
COc1cccc(CN2CC(C(=O)NC3CCCCCC3)CCC2=O)c1 (configuration not stated),13%,-1.2%,38,-0.4,nt,?,0.7%
COC(=O)c1[nH]c2ccccc2c1NC(=O)C(C)N1CC(C)OC(C)C1 (configuration not stated),9%,nt,2,0.5,-0.3,-12,-1.5%
O=C(NCc1ccc(Cl)c(Cl)c1)c1cc(C2CCCCN2C(=O)c2ccccc2)on1 (configuration not stated),nt,-1.4%,nt,0.0,nt,nt,2.4%
O=C(NCCc1ccccc1)c1ccc(-c2ccc(F)c(F)c2)c2ccoc12,nt,35µM*,nt,7.2,nt,nt,1.3%
S=C(NCC1CCCO1)N1CCc2ccccc2C1 (configuration not stated),-4%,1.4%,-2,-0.1,nt,-45,1.4%
COc1ccc(OC)c(/C=N/NC(=O)c2cc[n+](Cc3ccccc3)cc2)c1,8%,3.4%,5,-0.9,9.5,3,15%
CCc1ccc(/C=N/NC(=S)NCCc2ccccc2)cc1,8%,4.2%,26,3.7,0.2,-1,9.8%
CCN(CC)C(=O)C1=C(C)Nc2nc3ccccc3n2C1c1cccc(OC)c1 (configuration not stated),10%,-12%&-6.7%,-14&6,-0.6&-0.8,-0.9,-2,-0.2%&-0.8%

(list continues)
SMILES,Sfp inh,ClpP mod,TRPML1 blocker,TRPML1 ag,Menin-MLL FL inh,TRPV1 PAM,PINK1 expr mod
O=C(NCC(c1ccco1)N1CCc2ccccc2C1)c1ccc(Cl)c([N+](=O)[O-])c1 (configuration not stated),nt,-5.1%,3,-0.8,nt,7,?
CSc1ccc(Cl)c(C(=O)Nc2ccc(C)cn2)c1,-11%,nt,17,1.0,-2.0,-9,5.8%
CCN(CC)C(=O)CSc1nc2sc3c(c2c(=O)n1CCCOC)CCC3,7%,-3.6%,10,0.2,4.1,-21,1.7%
c1ccc(-n2c(SCC3CCCCO3)nnc2-c2cccs2)cc1 (configuration not stated),10%,?,-3,0.2,-2.2,-23,nt
COc1cc2c(cc1NS(=O)(=O)c1cccc(C#N)c1)n(C)c(=O)n2C,nt,-2.0%,-24,-0.6,nt,nt,0.3%
O=C(Cn1c(C(F)(F)F)nc2ccccc21)c1ccc(F)cc1,12%,1.3%,-7,0.8,2.8,-15,6.7%
CC1=CC(=O)O[C@@H]1[C@@]1(C)C[C@H]2OC(=O)C[C@H]3[C@@H](C)C(=O)C(O)=C1[C@@]23CO,nt,0.9%,nt,nt,nt,-7,-0.8%
COC(=O)c1sc(S(=O)(=O)N2CCCCC2)c(C(=O)OC)c1C,30%[activator],0.6%,-2,-0.2,3.0,-6,-2.0%[38.3 µM]

New compounds follow
SMILES,Sfp inh,ClpP mod,TRPML1 blocker,TRPML1 ag,Menin-MLL FL inh,TRPV1 PAM,PINK1 expr mod
S=C(NCc1ccccc1)NCC1COc2ccccc2O1 (configuration not stated),3%,-3.6%,9,1.2,0.7,10,1.8%[38.3 µM]
O=C(O)C1CC=CCC1C(=O)NNc1c(Cl)cc(Cl)cc1Cl (configuration not stated),11%,nt,21,-0.9,3.4,-1,-0.2%
CCOc1ccc(NC(=O)c2cc3nc(-c4ccc(OC)cc4)cc(C(F)(F)F)n3n2)cc1,nt,-2.0%,15,-0.6,nt,nt,1.3%
CC(=O)N1CCc2cc(S(=O)(=O)NC(Cc3ccccc3)C(=O)Nc3cc(C)ccc3C)ccc21 (configuration not stated),nt,-1.8%,-1,-1.4,nt,nt,0.8%
Cc1ccc(S(=O)(=O)NC2(C(F)(F)F)NC(=O)N(Cc3ccccc3)C2=O)cc1 (configuration not stated),12%,-2.5%,2,0.5,nt,-6,2.6%
N=C1C=CC(=C(c2ccc(N)cc2)c2ccc(N)cc2)C=C1,nt,-1.5%,10,1.1,nt,nt,?
COC(c1ccccc1)c1nnc(CCC(=O)NC2C3CC4CC(C3)CC2C4)o1 (configuration not stated),18%,0.8%,17,-0.3,-3.4,3,0.0%
CCOC(=O)c1cnc2c(C)cccc2c1Nc1ccc(N2CCOCC2)cc1,-29%,nt,nt,nt,7.2,-27,nt

More structures.
SMILES,Sfp inh,ClpP mod,TRPML1 blocker,TRPML1 ag,Menin-MLL FL inh,TRPV1 PAM,PINK1 expr mod
CCCCCCCOC(=O)C1=C(C)Nc2ncnn2C1c1cccs1 (configuration not stated),15%,1.2%,30,1.0,-0.8,10,6.5%
CCC(CC)C(=O)Nc1ccc(S(=O)(=O)N2CCC(c3nc4ccccc4s3)CC2)cc1,nt,2.3%,6,1.2,nt,nt,0.9%
CC(C)(C)OC(=O)N1CCN(C(=O)c2cccnc2Cl)CC1,8%,-1.1%,-14,0.1,2.7,10,-1.3%
O=C(Nc1ccc(S(=O)(=O)N2CCCCC2)cc1)C1CCCCC1,3%,nt,11,0.0,0.0,-18,4.8%
COc1ccc(CNc2nc3c(c(=O)[nH]c(=O)n3C)n2Cc2ccccc2)cc1,11%,-0.7%,11,0.8,0.5,11,0.2%
CC(=O)c1ccc(S(=O)(=O)N(C)CC(=O)Nc2ccc(C)cc2)cc1,nt,1.2%,9,-0.2,nt,-16,0.7%
O=C(Cc1ccc(Cl)cc1)Nc1ccc(C(=O)N2CCOCC2)cc1,8%,-1.8%,-20,-0.1,0.3,?,1.0%
COc1ccc(CCNC(=O)c2ccc(NC(=O)CC3SC(N4CCCCC4)=NC3=O)cc2)cc1OC (configuration not stated),nt,-0.7%,-2,-0.3,nt,nt,0.9%

(next part)
SMILES,Sfp inh,ClpP mod,TRPML1 blocker,TRPML1 ag,Menin-MLL FL inh,TRPV1 PAM,PINK1 expr mod
CCOC(=O)C1CCN(C(c2cc3ccc(C)cc3[nH]c2=O)c2nnnn2C2CCCCC2)CC1 (configuration not stated),35µM*,-10.0%,2,1.8,-0.4,-5,0.3%[38.3 µM]
Fc1ccc(Nc2ncnc3onc(-c4cccc(Cl)c4)c23)c(F)c1,nt,-8.9%,-2,0.3,nt,nt,0.3%
CCCC1=C(C(=O)OCC)C(c2ccccc2OCC)NC(=O)N1C (configuration not stated),12%,0.3%,4,2.6,-1.9,-23,-1.1%
COc1ccc(CNc2nc(SCc3ccccc3Cl)nc3ccccc23)cc1,nt,-0.4%,26,3.7,nt,nt,1.7%
CSCCC(NS(=O)(=O)c1ccc(Cl)cc1)C(=O)N1CCN(c2ccccc2)CC1 (configuration not stated),nt,0.9%,34,4.5,nt,nt,1.4%
O=C(Oc1ccccc1C(=O)Oc1ccccc1)c1ccco1,-12%,-1.4%,-22,1.5,2.0,-2,19%[38.3 µM]
COc1ccccc1CNC(=O)CSc1ccc(C)cc1,11%,-16%,8,-0.3,nt,5,1.3%
COc1ccc(NC(=O)CSc2nnc(Cc3cccn3C)n2CCc2ccccc2)cc1OC,3%,-2.3%,-13,0.5,4.2,-14,-0.9%[38.3 µM]

Reformatted with values under each structure: entries from further up
Fields – Sfp inh, ClpP mod, TRPML1 blocker, TRPML1 ag, Menin-MLL FL inh, TRPV1 PAM, PINK1 expr mod
> O=C(Oc1ccccc1C(=O)Oc1ccccc1)c1ccco1
  -12%, -1.4%, -22, 1.5, 2.0, -2, 19%[38.3 µM]
> COc1ccccc1CNC(=O)CSc1ccc(C)cc1
  11%, -16%, 8, -0.3, nt, 5, 1.3%
> COc1ccc(CNc2nc(SCc3ccccc3Cl)nc3ccccc23)cc1
  nt, -0.4%, 26, 3.7, nt, nt, 1.7%
> CCCC1=C(C(=O)OCC)C(c2ccccc2OCC)NC(=O)N1C (configuration not stated)
  12%, 0.3%, 4, 2.6, -1.9, -23, -1.1%

The list goes on:
SMILES,Sfp inh,ClpP mod,TRPML1 blocker,TRPML1 ag,Menin-MLL FL inh,TRPV1 PAM,PINK1 expr mod
CCOC(=O)c1c(NC(=O)c2cc(-c3ccc(Cl)cc3)on2)sc(C)c1C,nt,0.6%,-15,-0.6,nt,nt,4.2%
COc1ccc(N(C)S(=O)(=O)c2ccc3c(c2)oc(=O)n3C)cc1,12%,-1.8%,-2,-0.3,2.5,-2,-0.8%
CCCCCc1c(-c2ccc(F)cc2)ncn1CCc1ccccc1OC,nt,-6.3%,nt,1.0,nt,nt,-1.1%
COC(=O)C1CCN(S(=O)(=O)c2ccc(OC)cc2)CC1,20%,-1.2%,-13,-0.3,-0.3,1,-0.7%
CCNC(=O)c1c(NC(=O)C2COc3ccccc3O2)sc2c1CCCC2 (configuration not stated),6%,-3.8%,-8,-0.4,8.1,-2,2.1%
CC(C)COc1ccc(C(=O)N2CCC(c3nc4ccccc4s3)CC2)cc1,nt,-0.6%,-11,-0.6,nt,nt,1.5%
COc1ccc(Cl)cc1NS(=O)(=O)c1cccc(C(=O)NCCCN2CCCC2=O)c1,10%,-25%,0,0.0,-0.5,-10,0.5%
Cc1nc(Oc2ccccc2)c2ccccc2n1,3%,0.1%,-16,-0.9,2.6,-7,4.4%
CCCc1cc(C(=O)Nc2cccc(Cl)c2)no1,18%,1.1%,-3,2.2,4.5,2,1.4%
Cc1ccc(Cn2ncc3c(N4CCN(C5CCCC5)CC4)ncnc32)cc1,16%,1.0%,-9,-0.2,1.6,-20,1.4%

Screens deposited in PubChem by National Center for Advancing Translational Sciences (NCATS).
